Source: PubChem BioAssay
KCNQ2 enhance = potentiators of rat KCNQ2 potassium channel | B-score at 10 µM | CHO-K1 KCNQ2, FluxOR thallium flux fluorescence; active compounds read high | hit rate 0.54% among 310,000 | O88943;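 active = fluorescence ratio B-score at least 3 SD of library B-scores, with initial fluorescence B-score within 3 SD, cut at about 5.3 in these data; same plate scores as AID 2156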;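 also: B-score of peak minus minimum over baseline fluorescence ratio after K+ and Tl+ stimulus; positive B-score means potentiation of KCNQ2 with more thallium influx and brighter signal; only the inactives scoring about 0 or higher are listed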
Target sequence (O88943 whole entry, looked up): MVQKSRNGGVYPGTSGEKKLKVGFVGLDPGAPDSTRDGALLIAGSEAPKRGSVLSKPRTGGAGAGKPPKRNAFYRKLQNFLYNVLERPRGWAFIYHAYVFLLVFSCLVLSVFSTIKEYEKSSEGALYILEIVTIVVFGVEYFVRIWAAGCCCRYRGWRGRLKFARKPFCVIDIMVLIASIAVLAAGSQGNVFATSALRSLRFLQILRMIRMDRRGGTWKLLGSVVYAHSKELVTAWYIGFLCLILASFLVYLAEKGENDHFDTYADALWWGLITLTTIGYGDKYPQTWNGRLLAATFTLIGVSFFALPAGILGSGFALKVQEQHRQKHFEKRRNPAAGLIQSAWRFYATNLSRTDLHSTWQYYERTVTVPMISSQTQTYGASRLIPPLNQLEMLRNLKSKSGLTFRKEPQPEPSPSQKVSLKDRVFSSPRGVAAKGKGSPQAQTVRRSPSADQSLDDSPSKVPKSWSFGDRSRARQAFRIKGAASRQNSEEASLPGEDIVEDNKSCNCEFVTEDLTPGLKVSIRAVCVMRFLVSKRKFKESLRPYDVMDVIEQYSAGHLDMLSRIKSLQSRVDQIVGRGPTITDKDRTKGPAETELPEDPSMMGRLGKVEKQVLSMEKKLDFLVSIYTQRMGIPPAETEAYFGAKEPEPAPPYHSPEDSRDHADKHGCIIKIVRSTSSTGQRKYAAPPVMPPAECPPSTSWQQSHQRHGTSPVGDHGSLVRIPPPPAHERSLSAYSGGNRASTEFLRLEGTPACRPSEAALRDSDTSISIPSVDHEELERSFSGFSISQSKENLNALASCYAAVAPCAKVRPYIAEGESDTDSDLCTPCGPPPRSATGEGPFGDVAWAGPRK
KCNQ2 enhance baseline = further read-out of KCNQ2 enhance, marked with its call; B-score; compound at 10 µM; measured here: initial fluorescence intensity artifact check;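 brightness before thallium and not channel activity; 0 = typical well and far values either way flag optical interference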
* = called active by the depositor; . = not tested or not shown; & = joins results of further samples.

Start of the listing, in advance, 15 compounds:
SMILES	KCNQ2 enhance	KCNQ2 enhance baseline
COc1cc(C(=O)NC(C(=O)Nc2cccc(C(C)=O)c2)C(C)C)cc(OC)c1OC (stereo not given)	0.03	-0.03
CCOc1ccc(C(=O)NC(=S)N(Cc2ccccc2)Cc2ccccc2)cc1	20*	-1.4*
Cc1ccc(N(Cc2cc3ccccc3[nH]c2=O)C(=O)c2ccco2)c(C)c1	1.3	1.2
COc1ccccc1CNS(=O)(=O)c1ccc(-n2cnnn2)c(OC)c1	1	1.1
CCn1c(SCC(=O)Nc2cc(C)on2)nc2c(c1=O)SCC2	1.1	-0.16
N#Cc1ccccc1S(=O)(=O)N1CCN(C(=O)c2ccc(-n3cncn3)c([N+](=O)[O-])c2)CC1	0.05	-0.83
COc1ccc(OC)c(NC(=O)Nc2cccc(Cn3cccn3)c2)c1	1.3	-0.73
CCOC(=O)Cc1csc(NS(=O)(=O)c2ccc(OC)cc2)n1	1.1	-0.4
CCc1ccccc1NC(=O)c1ccccc1Sc1ccc([N+](=O)[O-])cc1Cl	0.51	-1.5
Cc1c(C(=O)N2CCOCC2)c(S(=O)(=O)Nc2cccc(F)c2)c(C)n1C	2.1	0.78
CC1CCN(C(=O)C(=O)Nc2sc3c(c2C(N)=O)CC(C)(C)OC3)CC1	3.2	0.18
O=C(O)CCC(=O)Nc1ccc(Cc2ccc(NC(=O)CCC(=O)O)cc2)cc1	0.06	0.25
CCCC(C(=O)OCC)P(=O)(c1ccccc1)c1ccccc1 (stereo not given)	1.5	-0.22
CCn1cc([N+](=O)[O-])c(C(=O)N2CCCC2)n1	0.22	-0.02
CN1CCN(NS(=O)(=O)c2cccs2)CC1	0.11	1.4

The listing, repeating the preview:
SMILES	KCNQ2 enhance	KCNQ2 enhance baseline
COc1cc(C(=O)NC(C(=O)Nc2cccc(C(C)=O)c2)C(C)C)cc(OC)c1OC (stereo not given)	0.03	-0.03
CCOc1ccc(C(=O)NC(=S)N(Cc2ccccc2)Cc2ccccc2)cc1	20*	-1.4*
Cc1ccc(N(Cc2cc3ccccc3[nH]c2=O)C(=O)c2ccco2)c(C)c1	1.3	1.2
COc1ccccc1CNS(=O)(=O)c1ccc(-n2cnnn2)c(OC)c1	1	1.1
CCn1c(SCC(=O)Nc2cc(C)on2)nc2c(c1=O)SCC2	1.1	-0.16
N#Cc1ccccc1S(=O)(=O)N1CCN(C(=O)c2ccc(-n3cncn3)c([N+](=O)[O-])c2)CC1	0.05	-0.83
COc1ccc(OC)c(NC(=O)Nc2cccc(Cn3cccn3)c2)c1	1.3	-0.73
CCOC(=O)Cc1csc(NS(=O)(=O)c2ccc(OC)cc2)n1	1.1	-0.4
CCc1ccccc1NC(=O)c1ccccc1Sc1ccc([N+](=O)[O-])cc1Cl	0.51	-1.5
Cc1c(C(=O)N2CCOCC2)c(S(=O)(=O)Nc2cccc(F)c2)c(C)n1C	2.1	0.78
CC1CCN(C(=O)C(=O)Nc2sc3c(c2C(N)=O)CC(C)(C)OC3)CC1	3.2	0.18
O=C(O)CCC(=O)Nc1ccc(Cc2ccc(NC(=O)CCC(=O)O)cc2)cc1	0.06	0.25
CCCC(C(=O)OCC)P(=O)(c1ccccc1)c1ccccc1 (stereo not given)	1.5	-0.22
CCn1cc([N+](=O)[O-])c(C(=O)N2CCCC2)n1	0.22	-0.02
CN1CCN(NS(=O)(=O)c2cccs2)CC1	0.11	1.4
CNC(=O)N(O)C1N(NC(=O)Nc2cccc3ccccc23)C(=S)SC1(C)C (stereo not given)	0.19	-0.69
N#Cc1ccc(Oc2ccc(S(=O)(=O)N3CCOCC3)cn2)cc1	0.01	1.2
CCOc1ccc(C2C(C#N)=C(N)Oc3cc(C)oc(=O)c32)cc1 (stereo not given)	0.25	0.14
Cc1nc(N(C)C)ncc1C(=O)O	0.79	1.3
O=c1[nH]c(-c2ccncc2)nc2ccccc12	1.4	0.15
Cc1nc2scc(-c3ccc(C(C)(C)C)cc3)c2c(=O)n1N	0.54	1.7
COc1ccc(CC(=O)NCc2ccccc2)cc1	0.86	1.4
CCN(CC)CC#CC(C)OCOCC#CCOC (stereo not given)	0.29	-0.51
Cc1cccn2cc(-c3ccc(S(=O)(=O)N4CCCCC4)cc3)nc12	0.38	-0.96
Cc1cc(N2CCN(c3nc(-c4ccccc4)cs3)CC2)c2ccccc2n1	0.05	0.74
FC(F)Sc1ccc(NC(=S)NC2CCCC2)cc1	0.22	-0.62
CC(=O)NCc1nc2ccccc2n1C(C)C	0.92	-1
Cc1cc(C)c(C)c(S(=O)(=O)N2CCC(C(=O)N3CC(C)CC(C)C3)CC2)c1C (stereo not given)	0.66	-3.1
Cc1cc(C)c(C(=O)CSc2nc(C)cc(C)c2C(N)=O)c(C)c1	0.12	-0.04
CCc1nnc(NC(=O)CCC(=O)NC2CCCC2)s1	1.2	0.47
CCOC(=O)CSc1nnc(-c2ccco2)n1C	0.33	-0.72
O=C(O)C1CC=CCC1C(=O)NCCc1ccccc1 (stereo not given)	0.37	2
O=C(COc1ccc2c(c1)C(=O)CC1(CCCCC1)O2)NCc1ccccc1	2.2	-1.8
CCc1ccc(-c2ccc(C(=O)O)c(C)n2)cc1	0.62	-0.7
O=C(Cc1ccccc1)NCC(=O)N1CCc2ccccc2C1	2.6	-0.98
Cn1ncc(Cl)c1C(=O)N1CCc2ccccc21	0.17	0.5
COC(=O)N1C(=O)[C@](c2ccsc2)(C(C)C)N1C(=O)OC	0.57	0.99
COC(=O)c1cc(S(=O)(=O)N(C)C2CCCCC2)oc1C	0.47	1.6
Nc1ccc(-n2ccnc2)cc1	0.12	0.39
CCOc1ccc(-c2c(C(=O)N/N=C(\C)c3ccco3)nnn2-c2nonc2N)cc1	0.12	0.8
Cc1ccc(C(=O)N/C(=C/c2ccc(-c3cccc([N+](=O)[O-])c3)o2)C(=O)NCCCN(C)C)cc1	0.25	0.76
O=C(CSc1nc(O)cc(=O)n1C1CCCC1)Nc1cccc(Cl)c1Cl	1.2	1.3
NC(=O)C1CCN(C(=O)COc2ccc3c4c(c(=O)oc3c2)CCCC4)CC1	0.33	-0.03
COc1cccc(/C=N/c2nc3ccccc3n2C)c1O	1.8	2.4
CCCCc1ncc(CN2CCC(n3nccc3NC(=O)C(OC)c3ccccc3)CC2)[nH]1 (stereo not given)	0.04	2.1
O=C(CSc1nc(=O)n(Cc2ccccn2)c2c1CCC2)Nc1ccc(F)cc1F	0.7	-0.42
O=C(c1ccccc1F)N1CCN(Cc2ccccc2F)CC1	1.4	-0.12
Cc1cc(/C=C(\C#N)C(=O)NCc2ccco2)c(C)n1-c1ccc(C(=O)O)cc1	1.2	-0.56
C=CCn1c(SCC(=O)NCc2ccc3c(c2)OCO3)nc2scc(-c3ccccc3)c2c1=O	0.01	2.3
COc1cccc(/C=C2\SC(N3CCCC(C)C3)=NC2=O)c1OC (stereo not given)	2.3	0.04
S=C(NCc1ccco1)Nc1ccc(Cl)c(Cl)c1	2.2	0.28
CCN(CC)S(=O)(=O)c1ccc2oc(C(=O)NCCN3CCOCC3)c(C)c2c1	1.5	0.04
C[C@H](NC(=O)C1CCN(S(=O)(=O)c2ccccc2)CC1)C(=O)NCc1ccc(Cl)cc1Cl	0.34	-1.1
O=C(/C=C/c1ccccc1)Nc1ccc(NC(=O)c2cccs2)cc1	1.4	0.15
Cn1c(N)c(N2CCN(c3ccccc3)CC2)c(=O)[nH]c1=O	0.07	-0.01
CCC1Oc2ccccc2N(CC(=O)Nc2ccc3c(c2)OCCO3)C1=O (stereo not given)	0.01	-1.3
CC1CC(C)CN(CC(=O)N2CCOCC2)C1 (stereo not given)	0.39	0.07
COC(=O)C1=C(C(=O)OC)[C@@H]2N(C)c3ccccc3[C@@]23C[C@@H](C(=O)OC)N=C3N1	0.3	0.68
Nc1ccc(S(=O)(=O)O)cn1	0.1&1.5	.
COc1ccc2c(c1)CCc1c(C(=O)NCc3cccnc3)noc1-2	2.3	-0.76

Later entries:
SMILES	KCNQ2 enhance	KCNQ2 enhance baseline
CCN(Cc1cc2cccc(C)c2[nH]c1=O)C(=O)c1ccccc1OC	0.15	-0.62
CN(C)c1ccc(C2/C(=C(/O)c3ccc(Br)cc3)C(=O)C(=O)N2C)cc1 (stereo not given)	0.76	-0.18
COC(=O)c1sccc1NC(=O)C12CC3CC(CC(C3)C1)C2	0.51	0.13
O=C(Nc1cccc(NC(=O)c2cccs2)c1)c1ccco1	0.15	0.14
O=c1cc(N2CCN(Cc3ccccc3)CC2)[nH]c(=O)n1-c1cccc(C(F)(F)F)c1	0.9	0.51
COc1ccc(S(=O)(=O)N(CC(=O)N/N=C/c2ccccc2C(=O)O)c2ccccc2OC)cc1	1.3	0.05
Cc1ccc(-c2nc(N)sc2CC(=O)OCC(=O)N2C(C)CCCC2C)cc1 (stereo not given)	0.03	-2.3
CCOC(=O)NC(=O)COC(=O)CCCc1nc2ccccc2s1	0.06	0.7
O=C(COC(=O)c1ccc(F)cc1F)Nc1ccc2[nH]c(=O)[nH]c2c1	1.1	0.66
COc1ccc(NC(=O)N(C2CCCCC2)C2CCN(C(C)C)CC2)c(OC)c1	1.4	1.5
O=C(c1cc2cc(Cl)ccc2oc1=O)N1CCN(c2ccccn2)CC1	0.52	1.5
COc1ccc(C(=O)NCc2cc(C)nc3ccccc23)cc1	0.62	-1.2
O=c1ncn(-c2cccc(F)c2)c2ncccc12	0.82	1.5
Cc1ccc(S(=O)(=O)NC(=O)c2ccc(-c3ccc(-c4ccccc4)cc3)o2)c(C)c1	0.04	-0.37
O=C(O)c1cc2c([nH]c1=O)CCCC2	0.09	0.7
Cn1c(=O)c(=O)n(C)c2cc(S(=O)(=O)CCC(=O)N3CCCCC3)ccc21	0.97	0.94
Cc1ccc(S(=O)(=O)NNc2ccccc2)cc1	0.01	-0.08
C=CCn1c(=O)c2c(nc3n2CCCN3CCc2ccccc2)n(C)c1=O	1.8	-0.14
Cc1ccsc1C(=O)Nc1ccc(OCc2ccccc2)cc1	0.86	-0.06
CCN1CCc2c(OCC(=O)N3CCCCC3)cccc2C1=O	0.01	2.3
Cc1ccc(S(=O)(=O)N2CCCC(C(=O)O)C2)s1 (stereo not given)	1.4	0.32
CC(=O)C1=C(O)C(=O)N(c2nccs2)C1c1ccccc1F (stereo not given)	0.41	-0.56
O=S(=O)([N-]c1nc2ccccc2nc1-[n+]1ccccc1)c1ccccc1	0.05	2.1
Cc1ccc(C(=O)NCc2ccco2)o1	1.8	0
COc1ccc2nc(C)cc(NCCN3CCOCC3)c2c1	2.4	0.49
CC(C)c1ccc(C(=O)NC(=S)Nc2ccc3[nH]c(=O)[nH]c3c2)cc1	0.86	0.81
COc1ccc(C)cc1NC(=O)c1ccc(NS(=O)(=O)c2cccc3cccnc23)cc1	1.2	0.03
Cc1ccc(N(CC(=O)NCc2ccccc2Cl)S(=O)(=O)c2cccs2)cc1	0.42	1.3
CCN(CC)S(=O)(=O)c1ccc(C(=O)Nn2cnnc2)cc1	0.68	-0.41
Cc1cc(C)c(NC(=O)C(C)c2cccc(C(=O)c3ccccc3)c2)c(C)c1 (stereo not given)	23*	0.34*
Cn1c2ccccc2c(=O)c2c(=O)n(C3CCCCC3)c(-c3ccco3)nc21	6.7*	-1.1*
CN1CCC(=C2c3ccccc3C(O)c3ccccc32)CC1 (stereo not given)	0.02	-2.8
CC1CC(C)CN(CC(O)COCCOc2ccc(Br)cc2)C1 (stereo not given)	0.29	-2
Cn1cccc1C(=O)OCC(=O)Nc1cc(C(C)(C)C)nn1-c1ccccc1	0.15	-0.03
O=C(c1ccccc1)N1CCC(c2nc(-c3ccc(S(=O)(=O)NCC4CCCO4)cc3)no2)CC1 (stereo not given)	1.7	-0.81
Clc1ccc(CNc2ccc(N3CCN(Cc4ccccc4)CC3)cc2)cc1	1.4	-1.3
Cc1c([C@H]2[C@@H](CC#N)C2(C)C)c2ccccc2n1C	0.27	-0.22
CCOC(=O)CSc1nc2ccc(C)cc2n2cnnc12	0.32	0
Cc1c(OCC(=O)NCC2CCC(C(=O)NCCCO)CC2)ccc2c(-c3ccccc3)cc(=O)oc12 (stereo not given)	0.01	0.17
C[N+]1(CC(O)COCC2COc3ccccc3O2)CCOCC1 (stereo not given)	0.36	0.93
CC(=O)NC1=NC(=O)/C(=C/N2CCCCC2)S1	1.3	0.05
N/C(=N\OC(=O)c1cccs1)c1cccc(Br)c1	5	-1.8
CC(=O)c1ccc(N2CCN(C(=O)Cc3cccs3)CC2)cc1	0.11	-1.9
COc1ccc(-n2nc(C(=O)NCC(=O)NCCCN3CC(C)CC(C)C3)c3ccccc3c2=O)cc1Cl (stereo not given)	0.02	-0.22
CC(C)c1ccc(CNc2nc3nc4c(c(=O)n3[nH]2)CCC4)cc1	1.5	0.55
COc1ccccc1CC(NC(C)=O)C(=O)NC1CCN(C(=O)Nc2ccccc2F)CC1 (stereo not given)	1.1	2.3
CCN1CCN(S(=O)(=O)c2cccc(S(=O)(=O)N3CCOCC3)c2)CC1	1.2	-1.8
COCCN1C(=O)C(=O)/C(=C(/O)c2ccc(S(=O)(=O)N3CCOCC3)cc2)C1c1ccc(O)c(OC)c1 (stereo not given)	1.5	-0.62
CC(=O)Nc1cccc(NC(=O)Nc2cccc(F)c2)c1	0.95	-0.17
COC(=O)C1CCN(C(=O)CCCOc2ccccc2)CC1	0.12	0.87
CCCCn1c(SCC(=O)c2ccc3c(c2)NC(=O)CO3)nc2cc(S(N)(=O)=O)ccc21	0.47	3.4
CC(=O)N(C)C(c1ccc(N(C)C)cc1)c1nnnn1-c1c(C)cccc1C (stereo not given)	1.3	1.7
CC1CCCN(C(=O)Cn2c(-c3nonc3N)nc3ccccc32)C1 (stereo not given)	0.25	-2.1
CCCn1c(=NC(=O)c2c(-c3c(F)cccc3Cl)noc2C)c(C(=O)OCC)cc2c(=O)n3ccccc3nc21	0.4	-0.94
CCOc1cc(NC(=S)NCC2CCCO2)c(OCC)cc1NC(=O)CC (stereo not given)	0.67	0.13
COc1ccccc1-n1ccnc1SCC(=O)NCC1CCCO1 (stereo not given)	0.59	-0.19

These rows are one share of the data (hit frequency here may not be typical).
